# High-throughput results as filed in PubChem.
# PMP22 txn: PMP22 gene transcription modulation | S16 Pmp22-F2sN Schwann cells (luciferase reporters placed in the Pmp22 gene), FLuc/NLuc coincidence luminescence, 24 h | Potency, µM (top dose mostly 57.5 µM), for the others: top-dose activity change, negative = inhibition, hits mostly inhibitors | 43,000 compounds, 2% hits; active = clear falling dose curves in both reporters; inconclusive = both reporters move, but less clearly or upward; inactive = either reporter flat; the % is the NLuc reporter signal; also: % is scaled to controls: 0 for no effect and ±100 for the full control effect; some results filed as inactive show a strong effect at the top dose
#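 qHTS, 1536-well. Cells seeded, compounds added by pin tool, 24 h 37C. Nano-Glo reagent 1 (lysis/FLuc), 10 min RT, read; Stop&Glo, 10 min RT, read NLuc.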
# HTT promoter inh: inhibits huntingtin promoter activity; 48,000 compounds, 0.93% hits; HEK293 HTT promoter firefly luciferase reporter (activity 0% = vehicle and -100% = no light), 24 h; Potency, µM (doses to about 57.5 µM), without a hit: at the highest dose activity change, negative = inhibition, hits mostly inhibitors; AID 1508623; active = well fitted inhibition curve with a large enough effect; inconclusive = small, poorly fitted or top-dose-only effect; inactive = no such curve, though single readings can be large or run the other way; also: nearly all actives have a fitted effect of over 50% in size
#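 HEK293 Fluc reporter, 2,500 cells/well, 24 h pre-culture; cpds up to 57.5 uM final, 24 h 37 degrees C; Dual-Glo, 10 min RT; normalized vehicle = 0%, zero RLU = -100%.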
# Numbers without * were called inactive; ? = inconclusive; . = not tested or not shown. Potency is read from the fitted curve at half-maximal effect.
SMILES,PMP22 txn,HTT promoter inh
CCOc1ccc(C2C(C(N)=O)=C(C)Nc3nc(-c4ccc(OC)cc4)nn32)cc1 (stereo unspecified),?,2%
CC(C)c1ccc(CN(Cc2ccco2)c2cnc(S(C)(=O)=O)nc2C(=O)Nc2ccc(F)cc2)cc1,24%,?
CN(C)S(=O)(=O)N(CC(=O)NCCSCc1ccccc1Cl)c1ccccc1,-10%,-22%
COc1ccc(C)cc1NC(=O)Cn1c(=O)oc2cc(S(=O)(=O)N3CCCCC3)ccc21,-30%,?
COc1ccc(NS(=O)(=O)c2ccc3c(c2)CCCN3C(=O)C2CCC2)cc1OC,?,1.8µM*
COc1ccccc1NC(=O)C1=C(C)Nc2nc(SCc3cccc(F)c3)nn2C1c1ccc(C(=O)O)cc1 (stereo unspecified),0%,-5%
CCC(=O)Nc1cccc(-c2cn3c(C)csc3n2)c1,-24%,20%
COc1cccc(-c2nc(CS(=O)(=O)CC(=O)NCc3cccc(Cl)c3)c(C)o2)c1,1%,-14%
COc1ccc(-n2nnnc2C2CCN(S(=O)(=O)c3cc(Cl)ccc3OC)CC2)cc1,?,?
COc1ccc(NC(=O)/C(C#N)=C/c2ccc(OCc3cc(=O)n4nc(C)sc4n3)cc2)cc1,-10%,-9%
Cc1ccc(C(=O)NCCSc2c[nH]c3ccccc23)cc1C,-29%,0%
Cc1ccc(NC(=O)c2c(C)oc3ncn(C)c(=O)c23)cc1F,?,-18%
Cc1ccccc1CNC(=O)CSc1nnc(C)c2c(C)n(-c3ccccc3)nc12,17µM*,-15%
COc1ccc(S(=O)(=O)N2CCN(Cc3nc4ccc(C)cc4o3)CC2)cc1Cl,?,0%
Cc1c(-c2nc(-c3ccc4c(c3)OCO4)no2)nnn1-c1ccc(C(C)C)cc1,-26%,1%
COCc1cc(C)nc2sc3c(c12)NC(c1ccc(O)cc1)N(c1ccc(OC)cc1)C3=O (stereo unspecified),-9%,-3%
COc1ccc(Cn2c(=O)c3ccccc3n3c(-c4ccc(C)cc4)nnc23)cc1,?,-19%
CCOC(=O)c1c(C)[nH]c(C)c1S(=O)(=O)NCC(=O)Nc1cccc(C#N)c1,9%,-22%
CCC1=C[C@@H]2CN(C1)Cc1c([nH]c3ccccc13)[C@@](C(=O)OC)(c1cc3c(cc1OC)N(C)[C@H]1[C@@](O)(C(=O)OC)[C@H](OC(C)=O)[C@]4(CC)C=CCN5CC[C@]31[C@@H]54)C2,.,-39%
Cc1cccc(CN2C(=O)c3ccccc3S(=O)(=O)c3ccc(C(=O)OCC4CCCO4)cc32)c1 (stereo unspecified),-3%,10%

# Next section; the last 2 above are carried over.
SMILES,PMP22 txn,HTT promoter inh
CCC1=C[C@@H]2CN(C1)Cc1c([nH]c3ccccc13)[C@@](C(=O)OC)(c1cc3c(cc1OC)N(C)[C@H]1[C@@](O)(C(=O)OC)[C@H](OC(C)=O)[C@]4(CC)C=CCN5CC[C@]31[C@@H]54)C2,.,-39%
Cc1cccc(CN2C(=O)c3ccccc3S(=O)(=O)c3ccc(C(=O)OCC4CCCO4)cc32)c1 (stereo unspecified),-3%,10%
CCC(CC)C(=O)Nc1cc(-c2cccc(C)c2)nn1-c1ccccc1,-2%,-32%
CC1CCN(S(=O)(=O)c2cn(CC(=O)Nc3ccc(F)c(Cl)c3)c(=O)c3ccccc23)CC1,-22%,?
Cc1ccc(C(=O)NC2(C(F)(F)F)C(=O)Nc3c2c(=O)[nH]c(=O)n3CCc2ccccc2)cc1 (stereo unspecified),6%,-3%
O=C1CC(=O)Nc2cc(S(=O)(=O)N3CCOc4ccccc43)ccc2N1,-4%,-16%
COc1ccc(C2c3c(n(C)c4ccccc34)C(=O)N2CC(=O)Nc2cccc(F)c2)cc1 (stereo unspecified),3%,?
COc1cc2[nH]c(=O)n(CCCC(=O)NCc3ccccc3)c(=O)c2cc1OC,-4%,-6%
CCCCN(C)CCCNC(=O)Cn1nc(CC)n2c(cc3sc(C)cc32)c1=O,-25%,-3%
Cc1ccccc1-c1nnc(CN2CCN(c3cccc(C)c3C)CC2)o1,15%,-9%
CCCC(=O)OCOC(=O)C1=C(C)NC(C)=C(C(=O)OC)C1c1cccc(Cl)c1Cl (stereo unspecified),.,-5%
COc1ccc(C(=O)Nc2nc3c(s2)Cc2cc(OC)ccc2-3)cc1,-28%,?
CCOc1ccccc1CNC(=O)c1ccc2c(c1)N(CC)CCS2,-54%,-23%
Cc1cccc(C)c1OCC(=O)N1CCC(c2nc3ccccc3o2)CC1,-2%,-11%
Cc1ccc(S(=O)(=O)NCC(Nc2cccc(Cl)c2)c2ccccc2)cc1 (stereo unspecified),?,25µM*
Cc1ccc(OCC(=O)OCc2cc(=O)n3nc(C4CCCCC4)sc3n2)cc1,-5%,-18%
CCCCOc1ccc(C(=O)NCC2(N3CCN(C)CC3)CCCCC2)cc1,-37%,-6%
Cc1ccc(NC(=O)COc2ccc(-c3nn(C)c(=O)c4ccccc34)cc2)cc1,?,?
OCc1ccccc1O[C@@H]1O[C@H](CO)[C@H](O)[C@H](O)[C@H]1O,.,-9%
CC1=C(C(N)=O)C(c2cccc(Br)c2)n2nc(SCc3ccccc3)nc2N1 (stereo unspecified),3%,-5%
O=C(CCc1ccccc1)N1CCc2c([nH]c3ccccc23)C1c1ccc(F)cc1 (stereo unspecified),?,?
COc1ccccc1NC(=O)CC(c1cc(OC)c(OC)c(OC)c1)N1Cc2ccccc2C1=O (stereo unspecified),2%,-8%

# 7 of the compounds above, with values under each structure:
# The line under a structure holds: PMP22 txn, HTT promoter inh
> Cc1ccc(OCC(=O)OCc2cc(=O)n3nc(C4CCCCC4)sc3n2)cc1
    -5%, -18%
> CCCCOc1ccc(C(=O)NCC2(N3CCN(C)CC3)CCCCC2)cc1
    -37%, -6%
> Cc1ccc(NC(=O)COc2ccc(-c3nn(C)c(=O)c4ccccc34)cc2)cc1
    ?, ?
> OCc1ccccc1O[C@@H]1O[C@H](CO)[C@H](O)[C@H](O)[C@H]1O
    ., -9%
> CC1=C(C(N)=O)C(c2cccc(Br)c2)n2nc(SCc3ccccc3)nc2N1 (stereo unspecified)
    3%, -5%
> O=C(CCc1ccccc1)N1CCc2c([nH]c3ccccc23)C1c1ccc(F)cc1 (stereo unspecified)
    ?, ?
> COc1ccccc1NC(=O)CC(c1cc(OC)c(OC)c(OC)c1)N1Cc2ccccc2C1=O (stereo unspecified)
    2%, -8%

# (further entries)
SMILES,PMP22 txn,HTT promoter inh
CCOc1ccccc1N1CCN(S(=O)(=O)c2ccc(C3CCCCC3)cc2)CC1,11%,-13%
Cc1ccc2[nH]c(=O)c3cc(C(=O)N4CCN(c5ccccc5)CC4)sc3c2c1,-12%,-5%
O=C(NC1CC(=O)N(c2ccc3c(c2)OCCO3)C1)c1c(F)cccc1Cl (stereo unspecified),-5%,-12%
COC(=O)c1ccccc1NC(=O)c1cc2c(-c3ccc(OC)c(OC)c3)nn(C)c2s1,-21%,8%
CC(=O)N1c2ccc(S(=O)(=O)N(C)CC(=O)N(Cc3ccccc3)C(C)C)cc2CC1C (stereo unspecified),-13%,-25%
COc1ccc(-c2cc(C(F)(F)F)nc(SCC(=O)NCc3ccc(OC)c(OC)c3)n2)cc1,-11%,-8%
COc1ccccc1N1CCN(C(=O)c2ccc(CS(=O)c3ccccc3C)o2)CC1 (stereo unspecified),?,-26%
COc1ccc(OC)c(CNS(=O)(=O)c2c(C(=O)N3CCC(C)CC3)c(C)n(C)c2C)c1,5%,-13%
CCC(=O)Nc1ccc2nc(SCC(=O)N3CCc4ccccc43)sc2c1,-24%,-11%
O=C(CCS(=O)(=O)c1cc2c3c(c1)CCN3C(=O)CC2)Nc1cccc(Br)c1,-5%,-2%
Cc1ccc(S(=O)(=O)CCC(=O)N2CCN(c3nc4c(C)c(C)ccc4s3)CC2)cc1,-35%,0%
COCCCNC(=O)c1ccc(Cn2c(SCc3cccc(C)c3)nc3cccnc32)cc1,-9%,-11%
CCOC(=O)C1CCC(CN(Cc2ccc(OC)cc2)S(=O)(=O)c2ccc(C)cc2)CC1 (stereo unspecified),2%,?
O=C(CC1N=C2c3ccccc3N=C(SCC(=O)Nc3cccc(Cl)c3)N2C1=O)NCc1cccs1 (stereo unspecified),-11%,-11%
O=C(CSc1nccn1Cc1ccc(F)cc1)NC1CCCC1,-6%,-24%
CC(C)(C)OC(=O)N1CCC(c2c(C(=O)NCc3ccco3)cnn2-c2ccccc2)CC1,-16%,-10%
CCOC(=O)c1ccc(CN(Cc2ccc(Br)cc2)S(=O)(=O)c2cccc(C(F)(F)F)c2)cc1,-9%,2%
COc1ccc(-c2nnc(SCC(=O)Nc3ccc(F)cc3)s2)cc1,1%,?
Cc1ccc(CSc2ncc(Cl)c(C(=O)Nc3sc4c(c3C(N)=O)CCCC4)n2)cc1,-2%,-7%
COc1ccccc1CNC(=O)c1cnc(SC)nc1C,-13%,0%
COc1ccc(-c2nnc(SCc3cc(=O)c4cc(C)cc(C)c4[nH]3)n2C)cc1,14µM*,?
CCc1ccc(-c2nc(CSCC(=O)NCc3ccccc3OC)c(C)o2)cc1,-29%,?
COc1ccc2oc(=O)c(-c3csc(-c4ccc(Br)cc4)n3)cc2c1,13%,-6%
Cc1cc2oc(C(=O)Nc3sc4c(c3C(=O)NCc3ccco3)CCC4)cc(=O)c2cc1C,-7%,-23%
CCN(c1ccccc1)S(=O)(=O)c1ccc2[nH]cc(C(=O)NC3CCCCC3)c(=O)c2c1,?,?
COc1cc2c(C(=O)N3CCN(c4cccc(C)c4)C(C)C3)cn(CC(C)C)c(=O)c2cc1OC (stereo unspecified),?,-18%
COCCn1c(SCC(=O)c2ccccc2)nc2cc(C(=O)NC3CCCC3)ccc2c1=O,8%,-4%
CCCN(CCC)CCNC(=O)Cn1cc2c(n1)-c1c(oc(C(=O)N3CCCC3)c1C)CC2,-4%,-4%
CCc1nnc(NC(=O)c2nc(S(=O)(=O)Cc3cccc(C)c3)ncc2Cl)s1,9.5µM*,?
Cn1ccc2cc(S(=O)(=O)N3CCN(C(=O)Nc4cccc(F)c4)CC3)ccc21,7%,-27%
CCOc1ccc(NC(=O)CCc2c(C)nc3cc(-c4ccccc4OC)nn3c2C)cc1,-56%,-25%
COc1ccc(N(CC(=O)NCCc2ccc(C)cc2)S(=O)(=O)c2c(C)nn(C)c2C)cc1,-20%,-15%
COc1ccc(NC(=O)c2nnn(-c3ccc(C(C)C)cc3)c2C)c(OC)c1,-6%,-11%
COc1cc(NC(=O)Cn2c(=O)ccc3cc(S(=O)(=O)N4CCCC4)ccc32)cc(OC)c1,?,?
Cc1ccc(C)c(NC(=O)Cn2cc(C(=O)c3ccc(Cl)cc3)c(=O)c3ccc(C)nc32)c1,-3%,-8%
COc1cccc(CNc2ccc3c(c2)ncn3C)c1OC,-24%,10%
Cc1cc(C)cc(C(=O)Nc2ccc(-c3nc4ncccc4o3)cc2)c1,?,10%
CCOC(=O)c1[nH]c2c(c1Cc1ccccc1OC)C(=O)CC(c1ccc(OC)cc1)C2 (stereo unspecified),0%,?
Cc1nnc(N2CCN(C(=O)Nc3cc(F)ccc3F)CC2)c2nn(-c3ccc(Cl)cc3)c(C)c12,?,?
CN(Cc1ccccc1)C(=O)Nc1ccc2c(c1)N(C)C(=O)c1ccccc1S2,5%,-24%
CCOc1ccc(N(C(C)C(=O)Nc2cc(Cl)ccc2OC)S(C)(=O)=O)cc1 (stereo unspecified),?,?
Cc1cc(-c2ccc(C)c(S(=O)(=O)N3CCOc4ccc(Cl)cc43)c2)on1,?,28µM*
Cc1cc(NC(=O)c2cnn(-c3ccccc3)c2-n2cccc2)ccc1Br,-63%,-6%
Cc1c2cnn(CC(=O)N3CCCCC3)c(=O)c2c(C)n1Cc1ccc(F)cc1,-4%,0%
CCOC(=O)c1c(NC(C)=O)c2c3c(sc2n1Cc1nc(-c2ccccc2Cl)oc1C)CCCC3,?,-26%
Cc1nc2ccc(S(=O)(=O)NCC(=O)NCc3ccc(Cl)cc3)cc2s1,-1%,-20%
O=C(c1ccc([N+](=O)[O-])cc1)N1CCN(c2ccc(Nc3ccccc3)nn2)CC1,?,-25%
CCOc1ccc(CCNC(=O)CCCc2nnc3n(CC)c(=O)c4sccc4n23)cc1OCC,-12%,-12%
CCCN(CCC)C(=O)C(Cc1ccccc1)NS(=O)(=O)c1ccc2c(c1)c(=O)n(C)c(=O)n2C (stereo unspecified),-6%,-7%
Cc1c(Cl)cccc1Nc1sc(C(=O)c2ccccc2)c(N)c1S(=O)(=O)c1ccccc1,-19%,5%
O=C(NCCc1ccc(Cl)cc1)C(=O)NCC(c1ccco1)S(=O)(=O)c1ccc(Cl)cc1 (stereo unspecified),?,?
CN(C)S(=O)(=O)c1ccc2c(c1)N(CC(=O)N1CCCCC1)CCS2,-2%,-7%
CCc1cccc(-n2c(=O)c3cccnc3n2CC(=O)NCc2ccccc2)c1,-16%,-26%
O=C(NCc1ccccc1Cl)C1CCN(c2ncnc3c2nc2n3CCCCC2)CC1,-28%,-6%
COCCCNC(=O)C1CCCN(C(=O)c2cnn(-c3ccc(F)cc3)c2-n2cccc2)C1 (stereo unspecified),0%,-17%
